YopH PTP inh: YopH tyrosine phosphatase inhibitors, primary screen, biochemical, fluorescence Ex485/Em525; YopH tyrosine phosphatase [Yersinia enterocolitica]; inhibition, %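 (about 10 µM by stock and volumes)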; 140,000 compounds, 0.16% hits; AID 898, 2007;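 active = inhibition of 50% or more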;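 also: controls were vehicle for no effect and minimum signal wells for full effect; inactives centre near -20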
Arbovirus anti: antivirals against arbovirus infection, primary screen, cell-based, full library, 10K replicate subset; arbovirus infection cell-based antiviral screen; inhibition, % at 10 µM; 200,000 compounds, 0.37% hits;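 active = inhibition from about 30%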;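 also: bluetongue infection of BSR cells; cell survival read as ATP light after 72 h; 0% = infected wells without compound and 100% = uninfected wells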
RecA intein inh: Mtb RecA intein splicing inhibitors, primary screen, biochemical, fluorescence, HTS. inhibition, %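 (about 9 µM by stock and volumes)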. 290,000 compounds, 0.75% hits. Protein RecA (Mycobacterium tuberculosis (strain ATCC 25618 / H37Rv)), P9WHJ3. cell-free RecA intein splicing; in the data active = inhibition above about 30%; inconclusive = no clear call, values can overlap the other calls;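 also: 0% = vehicle wells and 100% = reference inhibitor control wells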
Target sequence (P9WHJ3 whole entry, looked up): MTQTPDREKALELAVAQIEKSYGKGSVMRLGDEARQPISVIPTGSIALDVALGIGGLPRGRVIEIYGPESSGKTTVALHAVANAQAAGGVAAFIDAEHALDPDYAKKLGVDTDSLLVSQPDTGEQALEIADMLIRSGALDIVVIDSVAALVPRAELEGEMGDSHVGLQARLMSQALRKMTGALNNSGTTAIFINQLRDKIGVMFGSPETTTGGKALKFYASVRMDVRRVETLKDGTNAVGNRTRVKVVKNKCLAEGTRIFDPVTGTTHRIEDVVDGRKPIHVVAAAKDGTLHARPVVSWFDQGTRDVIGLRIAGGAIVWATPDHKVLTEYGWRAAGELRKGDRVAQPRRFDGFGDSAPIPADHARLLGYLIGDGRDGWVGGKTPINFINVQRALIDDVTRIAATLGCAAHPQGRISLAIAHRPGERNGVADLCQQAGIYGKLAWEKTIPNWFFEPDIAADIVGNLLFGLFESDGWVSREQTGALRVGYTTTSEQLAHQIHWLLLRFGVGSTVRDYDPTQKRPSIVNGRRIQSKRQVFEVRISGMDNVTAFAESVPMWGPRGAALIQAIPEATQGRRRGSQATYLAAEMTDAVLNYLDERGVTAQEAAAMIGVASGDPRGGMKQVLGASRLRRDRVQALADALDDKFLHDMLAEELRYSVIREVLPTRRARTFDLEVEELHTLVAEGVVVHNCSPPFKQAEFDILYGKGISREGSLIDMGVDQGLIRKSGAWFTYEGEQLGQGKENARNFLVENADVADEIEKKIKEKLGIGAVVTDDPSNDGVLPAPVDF
Mtb H37Rv: M. tuberculosis H37Rv growth inhibitors, H37Rv strain (AID 1626) | one-dose inhibition, % at 10 µM; IC50 in µM for titrated hits | M. tuberculosis H37Rv growth inhibition; higher % means a stronger effect | 220,000 compounds, 0.95% hits;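 active = confirmed in a dose series; inconclusive = inhibition above 80% but not taken into the dose series; inactive = below 80% or under 30% at every dose of the series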;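 also: bacteria incubated seven days before Alamar blue readout; 0% = bacteria only wells and 100% = bacteria with antibiotic wells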
Mtb bLac sens: beta-lactam sensitization of Mtb H37Rv, H37Rv; 330,000 compounds, 0.27% hits; inhibition, % at 25 µM; AID 434955, 2010; M. tuberculosis H37Rv growth with meropenem, percent inhibition; hits of this screen are not shown here;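 active = about 74% or more and at least 40 points above the plate without the antibiotic, then above 30% in a dose series; inconclusive = first-round hits that could not be retested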;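 also: growth measured after seven days incubation then overnight dye step; 0% = bacteria only wells and 100% = bacteria with antibiotic; twin plates without the antibiotic show which effects depend on it; some results filed as inactive read as strong as hits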
Arbovirus anti repeat: recorded beside Arbovirus anti, whose call it bears; inhibition, %; measured here: 10K subset replicate screen; many hits read low in the repeat;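 first of two repeat runs on a subset; 0% = infected and 100% = uninfected wells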
* marks the source's active call; other numbers are inactive results; ? = inconclusive; nt = no result given. This is a subset, so the mix of outcomes need not match the whole.

SMILES	YopH PTP inh	Arbovirus anti	RecA intein inh	Mtb H37Rv	Mtb bLac sens	others
Cc1ccc(S(=O)(=O)NC(=O)c2cc(C)n(-c3cc(S(=O)(=O)N4CCOCC4)ccc3N3CCCC3)c2C)cc1	9	8	0.8	3%	nt
O=C(CCc1ccccc1)Nc1ccc(NC(=O)c2ccco2)nc1	-50	9	1.5	-5%	-8
O=C(NCCC1=CCCCC1)NC1CCCCC1	-6	-1	-2.1	-2%	nt	Arbovirus anti repeat=-1
CCCCN1C(=O)NC(=O)C2(Cc3ccccc3N3CCOCC32)C1=O (centres undefined)	-26	7	-1.8	-7%	-1
COc1ccccc1CCNC(=O)C(=O)NCCC1CCCCN1S(=O)(=O)c1ccccc1 (centres undefined)	nt	nt	1.0	nt	-6
CCCCCn1c(SCC(=O)OCC)nc2cc(C(=O)N3CCC(C(N)=O)CC3)ccc2c1=O	-17	1	-0.8	-5%	1
Nc1cc(Oc2ccc(Cl)cc2Cl)nc(N)n1	nt	nt	1.4	nt	2
O=c1c2ccccc2c(-c2n[nH]c(=S)o2)nn1Cc1ccccc1	nt	1	8.0	1%	-5
Cc1cccc(C)c1NC(=O)CC(C)c1ccccc1 (centres undefined)	nt	nt	3.3	nt	4
N#Cc1c(N2CCOCC2)nc(N)c2c(N)nc3c(c12)CC(CCl)O3 (centres undefined)	nt	nt	-12	-19%	-3
O=C(CSc1nc2ccccc2n1CCc1ccccc1)c1ccc(O)c(O)c1	nt	-7	nt	4%	nt
Cc1cc(C)cc(C(=O)NCC(=O)OCC(=O)N2CCN(S(=O)(=O)c3ccc4ccccc4c3)CC2)c1	-29	-2	2.0	-10%	4
O=[N+]([O-])c1cccc2ccc(N3CCOCC3)nc12	nt	nt	5.7	nt	0
CCN(CC)S(=O)(=O)c1ccc2c(c1)nc(SC(C)C(N)=O)n2-c1ccc(OC)cc1 (centres undefined)	-20	-11	1.0	-9%	47
Cc1cc(C(=O)CS(=O)(=O)c2ccccc2)cc(C)c1OC(=O)N(C)C	nt	2	3.4	-2%	-9
COc1ccc(CNCCNC(=O)c2nonc2N)cc1OC	5	5	-3.1	-14%	7
Nc1ccc(C2(c3ccc(N)cc3)OC(=O)c3ccccc32)cc1	nt	nt	1.5	nt	-2
C=CCNC(=O)/C(C#N)=C/c1c(N2CCCCCC2)nc2ccccn2c1=O	nt	nt	2.2	nt	?
CC(=O)c1ccc(NC(=O)CN2CCCCCC2)cc1	nt	nt	-2.7	nt	2
Cn1c(CNS(=O)(=O)c2cccc(Cl)c2)cc(=O)n(C)c1=O	nt	nt	0.8	nt	-7
Cc1ccc2nc3c(cc2c1)CN(Cc1ccco1)C(=NCC1CCCO1)S3 (centres undefined)	8	-17	2.3	-2%	-5
CCC(C)(C)C1CCC(=NNc2nc3ccccc3[nH]2)CC1 (centres undefined)	-24	-33	0.2	1%	-2
CC(=O)Nc1cccc(C(=O)N/N=C/c2ccc(F)cc2)c1	-1	-6	-1.3	-4%	5
O=C(/C=C/c1ccccc1)Nn1cnc2ccccc2c1=O	-21	-11	2.0	-4%	-14
O=C(Nc1ccc(N2CCN(c3ncccc3C(F)(F)F)CC2)nc1)c1cccs1	nt	nt	10	16%	25

Remaining list, next part.
SMILES	YopH PTP inh	Arbovirus anti	RecA intein inh	Mtb H37Rv	Mtb bLac sens	others
Cc1nc(C(=O)NCc2ccccc2)sc1C1(C)CC(c2cccc([N+](=O)[O-])c2)=NO1 (centres undefined)	nt	nt	0.6	5%	2
O=C(Cc1ccccc1)NCCS(=O)c1ccc(Cl)cc1 (centres undefined)	-47	0	nt	-2%	-4
C=CCOn1c(=O)c(=O)n(OCc2ccccc2)c2ccccc21	-21	-4	1.4	-5%	1
Cc1c(C(=O)O)[nH]c2c1C(=O)CC(c1ccccc1)C2 (centres undefined)	-34	2	0.8	-1%	3
CCO[C@@H]1OC(C(=O)O)=C[C@H](c2coc3ccccc3c2=O)[C@H]1CCCO	nt	3	1.0	0%	-4
CCN(Cc1cnn(C)c1)C(=O)c1ccc2nc(Cc3cccc(Cl)c3)oc2c1	nt	nt	0.8	nt	14
COc1ccc(-n2nc(C(=O)NCC(=O)N3CCC(C)CC3)c3ccccc3c2=O)cc1Cl	nt	nt	0.7	nt	-2
NC(=O)NC(CC(=O)Nc1cccnc1)c1cccc(Br)c1 (centres undefined)	nt	nt	2.0	nt	-6
CCN1C(=O)[C@H]2[C@@H](c3ccc(SC4CCCCC4)cc3)N[C@@](CC(C)C)(C(=O)OC)[C@H]2C1=O	nt	nt	18	nt	-9
O=C(NCc1cccnc1)C1c2ccccc2C(=O)N1Cc1ccco1 (centres undefined)	14	4	-3.7	-6%	-13
CCN(CC)C(=O)Nc1c(C)n(C)n(-c2ccccc2)c1=O	-6	5	-1.8	-5%	-17
Cc1ccc(-n2ncc(C(=O)NCc3ccc4c(c3)OCO4)c2NC(=O)c2ccco2)cc1C	-15	3	1.0	6%	-5
COc1ccc(C(=O)Nc2ccc(S(=O)(=O)Nc3nccnc3OC)cc2)cc1OC	-32	5	nt	nt	-2
O=C(O)c1cc(S(=O)(=O)Nc2cccc3ccccc23)c(Cl)cc1Cl	nt	nt	5.8	nt	-3
Cc1occc1C(=O)NC1CCCN(Cc2ccc(CC(C)C)cc2)C1 (centres undefined)	nt	nt	5.4	nt	?
Cc1nc(N2CCN(c3ccccn3)CC2)c2c(C)c(C(=O)Nc3ccc(Br)cc3C)sc2n1	nt	nt	3.3	nt	79
O=c1cc(N2CCc3ccccc3C2)[nH]c(=O)n1-c1ccccc1Cl	-28	-7	-1.3	4%	-11
CNS(=O)(=O)c1ccc2c3c(cccc13)C(=O)N2C	nt	nt	-254	nt	6
Cc1ccc(COC(=O)CCc2nc3ccccc3c(=O)[nH]2)cc1	6	1	-4.3	8%	13
COc1ccc(CCNC(=O)CN(CCc2ccccc2)S(C)(=O)=O)cc1	nt	5	13	0%	-3
COCCCNC(=O)CSc1nc2c(sc(=S)n2-c2cc(Cl)ccc2OC)c(=O)[nH]1	nt	nt	-0.5	nt	-7
CCn1c(N2CCN(CC(=O)Nc3cccc(C)c3C)CC2)nc2ccccc21	6	-6	-1.1	4%	0
CCc1ccc(NC(=O)CN(C(=O)N2CCN(CC)CC2)S(=O)(=O)c2ccc(C)cc2)cc1	nt	nt	1.3	nt	14
O=c1c(/C=N/O)coc2ccc3ccccc3c12	-38	-2	-2.5	-6%	-4
COc1cc(NC(=O)c2cc(S(=O)(=O)N3CCCCC3)ccc2N2CCOCC2)cc(OC)c1	nt	nt	0.3	nt	3

Next records follow:
SMILES	YopH PTP inh	Arbovirus anti	RecA intein inh	Mtb H37Rv	Mtb bLac sens	others
CC(=O)c1cccc(NC(=O)CC2S/C(=N/N=C3CCCCCC3)NC2=O)c1 (centres undefined)	nt	nt	5.0	nt	-7
O=C(Nc1ccc(C(=O)N2CCN(c3ccccn3)CC2)cc1)c1ccc(Br)o1	nt	nt	2.9	nt	-1
O=C(NCCNc1ccc([N+](=O)[O-])cc1C(F)(F)F)c1ccccc1F	7	8	5.0	7%	0
O=C(C1CCN(S(=O)(=O)c2cnc[nH]2)CC1)N1CCN(c2ncccn2)CC1	-26	8	-2.2	-7%	6
O=C(Nc1ccc(NC(=O)C2CC2)cn1)c1ccccc1	nt	nt	0.2	nt	6
C/C(Cn1cnc([N+](=O)[O-])n1)=N\NC(=O)c1ccc(Br)cc1	-22	-2	-1.2	-2%	2
Cn1c(=O)oc2cc(S(=O)(=O)NCc3ccccn3)ccc21	-2	3	-6.9	-4%	-3	Arbovirus anti repeat=2
C=CCn1c(O)c(N=NC(=S)Nc2cccc(OC)c2)c2ccccc21	-24	-18	14	0%	9
O=C(O)c1ccc2c(c1)C(=O)N(c1cccc(C(=O)/C=C/c3ccccc3)c1)C2=O	nt	9	0.4	-9%	1
CC(C)S(=O)(=O)CC(=O)c1ccc(Cl)cc1	nt	7	0.2	3%	59
Cc1ccc(NC(=S)NC(=O)/C=C/c2ccco2)c(O)c1	nt	-2	-0.1	?	59
CCOc1cc(/C=C2\N=C(SC(C)C(N)=O)N(c3ccc(OC(F)F)cc3)C2=O)ccc1O (centres undefined)	nt	nt	17	nt	?
CCNC(=O)c1ccc(CSc2ccc(Cl)cc2)cc1	-42	-6	-3.3	8%	99
Cc1c(C(=O)NCc2ccc3c(c2)cc(C)n3C)cccc1[N+](=O)[O-]	-28	2	-1.7	24%	5
CC1CCN(CC(=O)N2c3ccccc3CCc3ccccc32)CC1	-8	3	-1.0	-6%	1	Arbovirus anti repeat=0
CCOC(=O)N1CCC(N(CCN(C)C)C(=S)Nc2cc(C)cc(C)c2)CC1	-13	14	0.3	-3%	-5
O=S(=O)(c1ccccc1)N1N=C(c2ccccc2)CC1c1ccccc1 (centres undefined)	nt	-5	-1.6	-3%	-4
COc1ccc(-c2cc(C)no2)cc1S(=O)(=O)N(C)c1cccc(C)c1	nt	nt	-5.1	nt	-8
CCc1ccc(-c2cc(C(=O)NN3CCOCC3)c3ccccc3n2)cc1	13	8	-0.4	7%	16
O=C(CSc1ccc(-c2cccnc2)nn1)Nc1ccccc1	nt	nt	-2.5	nt	-1
CC(=O)Nc1ccc2c(c1)ncn2C	-11	-6	-2.2	-3%	5
O=C(Oc1ccnc2cc(Cl)ccc12)N1CCCCCC1	24	-6	7.6	1%	62
c1ccc(-c2csc(-n3cccn3)n2)cc1	nt	-3	1.0	2%	-1
COc1cccc(C2NC(=O)c3ccccc3O2)c1OCc1ccccc1F (centres undefined)	nt	2	0.0	-2%	-2
COc1ccc(NC(=O)CCCCC(=O)Nc2ccc(OC)cc2OC)c(OC)c1	nt	nt	2.7	nt	2

Pulled one by one from above (2):
SMILES	YopH PTP inh	Arbovirus anti	RecA intein inh	Mtb H37Rv	Mtb bLac sens	others
c1ccc(-c2csc(-n3cccn3)n2)cc1	nt	-3	1.0	2%	-1
O=S(=O)(c1ccccc1)N1N=C(c2ccccc2)CC1c1ccccc1 (centres undefined)	nt	-5	-1.6	-3%	-4

Remaining list, next part
SMILES	YopH PTP inh	Arbovirus anti	RecA intein inh	Mtb H37Rv	Mtb bLac sens	others
Cc1cc(OCc2cc(C(=O)N3CCCCCC3)no2)cc(C)c1Cl	nt	nt	8.7	nt	10
CC1CCN(C(=S)NC(=O)c2ccccc2)CC1	8	7	-0.6	?	nt
O=[N+]([O-])c1cccc(S(=O)(=O)Nc2ccc(S(=O)(=O)NCC3CCCO3)cc2)c1 (centres undefined)	nt	nt	-4.4	nt	3
Cc1ccc2cccc(Oc3ccc([N+](=O)[O-])cc3[N+](=O)[O-])c2n1	-25	-3	0.3	49%	39
Cc1ccc2nc(NC(=O)c3ccc4ncsc4c3)sc2c1	-5	14	-9.9	5%	4
CSc1cccc(NC(=O)C(=O)NCc2ccccc2)c1	nt	nt	0.7	-5%	-2
C=CCN(C(=O)c1csnn1)C(C(=O)NC1CCCC1)c1ccccc1F (centres undefined)	nt	nt	0.7	nt	7
O=C(Nc1ccc([N+](=O)[O-])cc1)C(=O)Nc1cccc(C(=O)O)c1	nt	nt	0.4	-12%	-10
O=c1[nH]c(=O)n(Cc2ccccc2)c(O)c1C=Nc1ccc(CN2CCOCC2)cc1	-14	11	-1.9	-5%	0
O=C(NC1CCNCC1)C1CCCCC1	nt	nt	0.6	nt	0
COCCCn1c(SCc2cc(=O)[nH]c3ccccc23)nnc1-c1ccco1	-22	7	-0.1	3%	1
CCc1c(C)nc(SCCOc2ccc(OC(C)C)cc2)[nH]c1=O	-27	15	-1.7	-5%	-1
COc1ccc(CCN(C)Cc2ccc(C(=O)Nc3ccccc3)cc2)cc1OC	nt	nt	0.2	nt	87
C/C(=N\NC(=O)c1cccc(N/N=C(\C)c2ccccc2)c1)c1ccccc1	-8	-18	nt	3%	-2
COCCCNC(=O)c1cc(S(=O)(=O)N2CCOCC2)ccc1SCc1cccc(OC)c1OC	nt	3	-0.1	3%	-4
O=C(NC1CCCCCC1)c1nnc(Cc2ccc(Cl)cc2)o1	3	-8	1.1	10%	-8	Arbovirus anti repeat=4
Cc1ccccc1C(=O)NNC(=O)c1cccn1C	nt	nt	-0.3	nt	-7
CCNCCNc1ccc(Cl)cc1[N+](=O)[O-]	-9	nt	-0.8	5%	5

4 consecutive records from above:
SMILES	YopH PTP inh	Arbovirus anti	RecA intein inh	Mtb H37Rv	Mtb bLac sens	others
COCCCNC(=O)c1cc(S(=O)(=O)N2CCOCC2)ccc1SCc1cccc(OC)c1OC	nt	3	-0.1	3%	-4
O=C(NC1CCCCCC1)c1nnc(Cc2ccc(Cl)cc2)o1	3	-8	1.1	10%	-8	Arbovirus anti repeat=4
Cc1ccccc1C(=O)NNC(=O)c1cccn1C	nt	nt	-0.3	nt	-7
CCNCCNc1ccc(Cl)cc1[N+](=O)[O-]	-9	nt	-0.8	5%	5

Screening results as filed in PubChem BioAssay.
